# From PubChem BioAssay
# OX1R antag = blocks the human orexin 1 receptor; inhibition, % at 5 µM; 330,000 compounds, 0.43% hits; AID 434989; O43613; CHO/OX1R cells, Fluo-8 calcium fluorescence, orexin A;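 active = inhibition above its plate's threshold, mean inhibition of all tested compounds on the plate plus 3 SD, cut at about 37% in these data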;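 also: 0% = orexin A challenge wells and 100% = SB-334867-A antagonist wells; not every result past the cut was called active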
# Target sequence (O43613 whole entry, looked up): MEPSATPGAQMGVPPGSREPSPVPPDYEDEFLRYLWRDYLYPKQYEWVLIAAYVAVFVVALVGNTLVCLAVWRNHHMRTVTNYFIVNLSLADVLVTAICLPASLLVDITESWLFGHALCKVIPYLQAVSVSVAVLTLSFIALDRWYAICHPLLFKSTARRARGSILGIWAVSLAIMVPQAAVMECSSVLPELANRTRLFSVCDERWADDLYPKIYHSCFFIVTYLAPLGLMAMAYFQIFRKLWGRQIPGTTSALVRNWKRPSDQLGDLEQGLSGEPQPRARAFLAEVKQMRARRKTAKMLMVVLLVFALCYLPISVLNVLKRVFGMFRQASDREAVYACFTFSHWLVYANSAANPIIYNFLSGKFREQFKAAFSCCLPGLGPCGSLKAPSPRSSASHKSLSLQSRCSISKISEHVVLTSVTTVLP
# Numbers without * were called inactive. Some of the compounds tested, and most or all hits are left out here.
SMILES,OX1R antag
CSc1nnc(C2CCN(CC(=O)Nc3ccccc3N3CCOCC3)CC2)n1C(C)C,-15.8
CC(C)Oc1cccc(C(=O)C2CCCN(C(=O)c3ccc4c(c3)OCO4)C2)c1 (centres undefined),-4.2
COc1cc(Br)c(Br)c(Br)c1N,-2.4
CN(C)C(CNC(=O)c1cccc(S(=O)(=O)N(C)C)c1)c1ccccc1 (centres undefined),-19.8
Cc1ccc2nc(-c3ccncc3)c(Nc3ccccc3)n2c1,-25.9
CCOc1cc(-c2nnc(-c3ccco3)o2)cc(OCC)c1OCC,-13.2
Cn1c(=O)c2c(SCC(=O)N3CCCC3)nc(-c3ccccc3)nc2n(C)c1=O,-9.9
COC(=O)Nc1ccc2c(c1)N(C(=O)CCN1CCN3CCCC3C1)c1ccccc1S2 (centres undefined),-14.2
CCN(C(=O)Cc1c(C(=O)O)n(CC)c2ccccc12)c1ccccc1C,-23.6
N#Cc1ccc(N2C(=O)[C@@H]3C(C(=O)C(c4ccccc4)c4ccccc4)=NN[C@@H]3C2=O)cc1,-29.2
COC(=O)c1cc(S(=O)(=O)N2CCN(c3ccc(C(C)=O)cc3)CC2)c[nH]1,4.0
CCOc1ccc(N(C)S(=O)(=O)c2ccc3[nH]cc(C(=O)NCCOC)c(=O)c3c2)cc1,-14.1
O=C(C1CCN(S(=O)(=O)N2CCCC2)CC1)N1CCCCC1,-7.2
CC(NC(=O)c1cccnc1)C(c1cccs1)N1CCOCC1 (centres undefined),-12.2
Cc1cc(Nc2cc(F)ccc2C)n2ncnc2n1,-9.5
COC(=O)c1ccccc1NC(=S)NC(=O)C1CC1,-6.4
COc1ccc2[nH]c(C(=O)N/N=C/c3ccc(OC)c(O)c3)cc2c1,-24.1
CCc1ccc(CNC(=O)c2ccc(NC(=O)C3=CSCCO3)cc2)cc1,-9.8
COC(=O)C1=C(C(=O)OC)SC(=C2C(=S)C(C)(C)N(C(=O)CC(C)C)c3ccccc32)S1,-16.3
O=C(CNS(=O)(=O)c1ccccc1)N/N=C\c1ccc(Cl)cc1,8.4
CC(=O)Nc1ccc(S(=O)(=O)NCc2cccnc2)cc1,1.3
CCC1=NN2C(=N)/C(=C/c3ccc(OS(=O)(=O)c4ccccc4)c(OC)c3)C(=O)N=C2S1,-6.5
CCOc1cc(C(=O)OC(C)C(=O)Nc2ccc(S(N)(=O)=O)cc2)ccc1OCC(=O)N1CCOCC1 (centres undefined),-1.9
CCC1CCCCN1C(=S)Nc1cccc(S(=O)(=O)N(C)C)c1 (centres undefined),-14.4
CCOC(=O)N1CCN(C(=S)NC2CCCCC2)CC1,-17.0
CCNc1nc(NC(C)C)nc(NS(=O)(=O)c2ccc(Cl)cc2)n1,-18.9
CC(=O)NN1C(=O)c2ccccc2NC1c1ccc(N(C)C)cc1 (centres undefined),-13.6
C/C(=N/NC(=O)CNC(=O)c1ccccc1F)c1ccc2c(c1)CCCC2,-36.1
COC(=O)CCC(=O)NNC(=O)CCCOc1ccc(Cl)cc1Cl,-9.1
CC1CCC2(CC1)SCC(=O)N2c1ccc(F)cc1 (centres undefined),-11.2
NC(=O)CSc1nnc2sc3ccccc3n12,-9.5
Cc1nnc(SCC(=O)Nc2ccc(S(=O)(=O)N3CCCCC3)cc2)s1,-11.6
Cc1cccc(C)c1N1CCN(S(=O)(=O)N2CCOCC2)CC1,-15.4
CCc1nc2sc3ccccc3c(=O)c2c(=O)n1Cc1ccco1,-8.7
COc1ccc(CCn2c(=N)c(C(=O)NC3CCCC3)cc3c(=O)n4cccc(C)c4nc32)cc1,-23.0
O=C(NCCC(=O)N1CCNC1=O)OCc1ccccc1,-6.9
CC(=O)Nc1ccc(NC(=S)NC(=O)c2cc3ccccc3o2)cc1,-14.6
NC12CC3CC(C1)CC(CC(=O)O)(C3)C2,-5.1
CCOC(=O)c1c(NC(=O)CSc2nnc(-c3cccnc3)n2Cc2ccco2)sc(C)c1C,-35.5
CCS(=O)(=O)n1nc(-c2ccc(OC)cc2)nc1SC,-3.1

# Six consecutive records from above, quoted:
SMILES,OX1R antag
COc1ccc(CCn2c(=N)c(C(=O)NC3CCCC3)cc3c(=O)n4cccc(C)c4nc32)cc1,-23.0
O=C(NCCC(=O)N1CCNC1=O)OCc1ccccc1,-6.9
CC(=O)Nc1ccc(NC(=S)NC(=O)c2cc3ccccc3o2)cc1,-14.6
NC12CC3CC(C1)CC(CC(=O)O)(C3)C2,-5.1
CCOC(=O)c1c(NC(=O)CSc2nnc(-c3cccnc3)n2Cc2ccco2)sc(C)c1C,-35.5
CCS(=O)(=O)n1nc(-c2ccc(OC)cc2)nc1SC,-3.1

# The list goes on:
SMILES,OX1R antag
S=C1NCCC12C(=S)Nc1ccccc12 (centres undefined),-2.5
Cc1ccc(C(=O)N/C(=C/c2ccc(-c3ccc(Br)cc3)o2)C(=O)NC2CCS(=O)(=O)C2)cc1 (centres undefined),-11.5
CC(NCc1ccc(S(N)(=O)=O)cc1)C(=O)N1CCc2ccccc21 (centres undefined),-30.3
O=C(CSc1nnnn1Cc1ccccc1)c1ccccc1,-14.8
Cc1cccc(OC(C)C(=O)Nc2ccc(S(=O)(=O)N3CCCC3)cc2)c1 (centres undefined),-7.0
CC(C)Nc1nc(NC(C)C)nc(Oc2ccc(/C=N/O)cc2)n1,-9.3
O=C(c1ccccc1)c1ncc[nH]1,-15.5
Cc1cc(NS(=O)(=O)c2ccc(NC(=O)/C=C/c3ccccc3Cl)cc2)no1,-7.4
Cn1c(=O)n(C)c2cc(NS(=O)(=O)c3ccc(Cl)s3)ccc21,-12.8
CC(C)CC(=O)N1CCN(Cc2cccc(Cl)c2)CC1,-5.7
Cn1nc(C(F)(F)F)c(C(=O)Nc2ccc(F)cc2F)c1Cl,-12.4
O=C(O)CC(NC(=O)C(F)(F)F)c1ccc2c(c1)OCO2 (centres undefined),-13.0
COc1cc(OC)c(/C=N/n2c(C3CCCCC3)n[nH]c2=S)c(OC)c1,-36.1
CCOC(=O)C(Cc1ccc(O)cc1)NC(=O)CNC(=O)C1CCCN1C(=O)OC(C)(C)C (centres undefined),-9.7
Cc1ccc(-c2cccc(C3CC=CC4C3C(=O)N(Cc3ccccc3)C4c3ccc(C(F)(F)F)cc3)c2)cc1 (centres undefined),10.4
CC(NC(=O)OCc1ccccc1)C(=O)Oc1cc2oc(=O)cc(-c3ccccc3)c2cc1Cl (centres undefined),-6.7
Cc1ccc2nc(SCC(=O)Nc3ccc4c(c3)CCC4)[nH]c2c1,-2.6
COc1ccc2cc(S(=O)(=O)Nc3ccccn3)ccc2c1,5.2
Cc1ccc(-n2ncc3c2CC(C)(C)CC3NC(=O)CCc2cnn(C)c2)cc1 (centres undefined),-19.2
O=C(Nc1ccc(Oc2ccccc2)nc1)C1CCN(Cc2ccccc2)CC1,-17.4
CC1=C(C(N)=O)C(c2cccs2)NC(=S)N1 (centres undefined),-16.1
CC1(C)Cc2c(C#N)c(NCCN3CCOCC3)nc(-c3ccco3)c2CO1,-31.6
CC(C)c1nc(NCCN2CCOCC2)c(C#N)c2c1COC(C)(C)C2,-34.1
CCN1CCN(C(=O)CCN2C(=O)COc3ccc(C)cc32)CC1,-4.8
Cc1ccc2c(=O)[nH]c(Cc3ccccc3C(=O)O)nc2c1,-5.0
CC(C)CCn1c(SCCc2ccccc2)nc2c1c(=O)[nH]c(=O)n2C,-29.8
CC(C)c1ccc(CN2CC(C(=O)O)CC2=O)cc1 (centres undefined),-2.6
COc1cc(C(C)=O)ccc1OCC(O)CN(CCO)Cc1ccccc1 (centres undefined),-36.8
CCc1nn(C(CC)C(=O)NCc2cccc(OC)c2)c(=O)c2cc3occc3n12 (centres undefined),-37.0
CCC1(CC)C(=O)NC(=O)NC1=NCCc1ccc(O)cc1,-10.4

# Sorted by formula weight (ascending): some entries from above.
SMILES,OX1R antag
Cc1ccc2nc(SCC(=O)Nc3ccc4c(c3)CCC4)[nH]c2c1,-2.6
COC(=O)CCC(=O)NNC(=O)CCCOc1ccc(Cl)cc1Cl,-9.1
N#Cc1ccc(N2C(=O)[C@@H]3C(C(=O)C(c4ccccc4)c4ccccc4)=NN[C@@H]3C2=O)cc1,-29.2

# Other structures follow.
SMILES,OX1R antag
Cc1cc2c(s1)c1cnn(CC(=O)NCCc3ccccc3)c(=O)c1n2C,-24.7
CCN(CC)CCNC(=O)c1ccc(Cl)c(S(=O)(=O)N2CCCCCC2)c1,-23.9
CC(Oc1ccc(-c2ccccc2)cc1)C(=O)N/N=C/c1cccnc1 (centres undefined),-9.0
NS(=O)(=O)c1ccc(CCNC(=S)Nc2ccc(S(N)(=O)=O)cc2)cc1,-4.2
COc1cccc(CNC(=O)N[C@@H](C)C(=O)O)c1,-9.1
CN1C(CC(=O)c2ccccc2)CCCC1CC(O)c1ccccc1 (centres undefined),-34.4
COc1ccc(C(=O)NC(=S)Nc2nc(-c3ccc(OC)c(Br)c3)cs2)cc1Br,-3.4
CC(=O)Nc1ccc(SCc2ncc(-c3ccccc3)o2)cc1,-7.6
O=C(NCCN1CCOCC1)c1cc(-c2ccc(F)cc2)on1,-26.9
COC(=O)c1ccccc1OC(=O)c1cccnc1,-2.1
O=C(COC(=O)c1cc(S(=O)(=O)N2CCOCC2)c(Cl)cc1Cl)Nc1ncc(C(F)(F)F)cc1Cl,-10.7
OCC[C@@H]1C[C@@H](O)[C@H](O)[C@@]2(CCCO2)O1,-1.3
COc1ccc(NC(=O)CSC2CC(=O)N(c3ccc4c(c3)OCCO4)C2=O)cc1 (centres undefined),-25.9
CCN(CC)S(=O)(=O)c1ccc(C(=O)Nc2nnc(NC(=S)Nc3ccccc3)s2)cc1,14.5
CN1CCN(C(=O)c2ccc3c(c2)N(Cc2ccccc2F)C(=O)c2ccccc2S3=O)CC1 (centres undefined),-39.0
CCOC(=O)N1CCC(N(CCN(C)C)C(=S)Nc2ccccc2OC)CC1,-17.5
CCOC(=O)C(CO)(NC(C)=O)C(=O)OCC,0.2
Cc1ccc(N(C(=O)Cn2nnc(-c3ccccc3F)n2)C(C(=O)NC2CCCC2)c2ccncc2)cc1 (centres undefined),-11.2
CCC(=O)N1CC2(c3ccccc3)CN(C(=O)CC)CC(c3ccccc3)(C1)C2=O,-19.5
COc1ccc(C(=O)Nc2sc(C)c(-c3ccccc3)c2C#N)cc1OC,-21.0
COc1ccc(N(CC(=O)Nc2ccccc2F)S(=O)(=O)c2ccc(C)c([N+](=O)[O-])c2)cc1,-3.4
COc1ccc(OC)c(NS(=O)(=O)c2ccc(SC)cc2)c1,-10.2
Cc1cc(O)ccc1Nc1nc(-c2sc(N)nc2C)cs1,5.9
COc1ccc(NC(=O)CN2C(=O)CC(C)S(=O)(=O)c3ccccc32)cc1 (centres undefined),9.9
CCn1cc(C2C3=C(CC(C)(C)CC3=O)N(c3ccccc3)C3=C2C(=O)CC(C)(C)C3)c(C)n1,-33.7
CCOC(=O)c1c(NC(=O)CN2CCC(C)CC2)sc(C)c1C,-15.4
CCN(CC)C(=O)CC(c1ccc(N(C)C)cc1)c1c(OC)cc(OC)c2ccc(=O)oc12 (centres undefined),-38.2
COc1ccc(N2CCN(C(=O)CCCNC(=O)Cn3cnc4sc(C)c(C)c4c3=O)CC2)cc1,-36.1
c1cc(CNc2ccc3c(c2)OCCO3)ccn1,-10.7
CC(C)NC(=O)CNc1ccc(C(F)(F)F)cc1[N+](=O)[O-],-21.8

# Shown with values ahead of the structure: 3 of the compounds above
OX1R antag	mol
-10.7	c1cc(CNc2ccc3c(c2)OCCO3)ccn1
-21.8	CC(C)NC(=O)CNc1ccc(C(F)(F)F)cc1[N+](=O)[O-]
5.9	Cc1cc(O)ccc1Nc1nc(-c2sc(N)nc2C)cs1

# Going on with the list:
SMILES,OX1R antag
c1ccc(N2CCN(c3ncnc4sc5c(c34)CCC5)CC2)cc1,-37.0
CN(C)CCCN(C(=O)c1ccc(C(=O)c2ccccc2)cc1)c1nc2cc3c(cc2s1)OCCO3,-17.7
Cc1c(N)cc(N)cc1C(=O)O,1.7
O=C(OCc1cc2ccccc2[nH]c1=O)c1cccc([N+](=O)[O-])c1,-12.4
CCOc1ccc(CCNC(=O)CCNS(=O)(=O)c2ccc3c(c2)CCN3C(C)=O)cc1OCC,-15.8
O=C(COc1ccc2c3c(c(=O)oc2c1)CCC3)N1CCCC1,-25.9
C/C(=N\NC(=O)c1cc(C)[nH]n1)c1cccs1,-11.5
CC(C)NC(=O)/C(C#N)=C/c1ccc(N(C)C)o1,-3.5
Cc1ccccc1OCc1nnc(SCc2cc(=O)[nH]c3ccccc23)o1,-7.6
Cc1nc2cc(NC(=O)c3ccc([N+](=O)[O-])s3)ccc2s1,-7.7
CC(OC(=O)CN1C(=O)NC2(CCCC2)C1=O)C(=O)c1ccc(C(C)(C)C)cc1 (centres undefined),-3.1
Cc1ccc(C(=O)NC(=S)Nc2ccc(N3CCOCC3)cc2)c(C)c1,-25.1
CCOC(=O)C1=C(CN2CCN(C(=O)c3ccco3)CC2)NC(=O)NC1c1ccc(OC(C)C)cc1 (centres undefined),-28.7
COc1cc2ccccc2cc1C(=O)NC(=S)Nc1cccc(C(=O)O)c1,-11.8
Fc1cc(F)cc(NC(=S)N2CCN(c3ncccn3)CC2)c1,-3.6
O=C(CN1CCC(N2CCCCC2)CC1)N1CCCc2ccccc21,-16.7
Cc1oc2ccc(O)cc2c1C(=O)OC(C)C,-5.0
CSc1nc2sc3c(c2c(=O)n1C1CCCCC1)CCN(C)C3,-10.2
CCCn1c(-c2ccncc2)n[nH]c1=S,-2.1
Cc1ccc(SC(C)C(=O)NC2CC2)cc1 (centres undefined),-1.6
CCOc1cccc(-c2nn3c(-c4ccccn4)nnc3s2)c1,-9.6
Cc1nn(Cc2ccc([N+](=O)[O-])cc2)c(=O)n1-c1ccc(Cl)cc1,-28.4
O=C(C1CCCN(S(=O)(=O)c2ccccc2)C1)N1CCCc2ccccc21 (centres undefined),-15.2
O=C(NCCN1CCCC1=O)C1CCC(=O)N(CCc2ccc(Cl)cc2)C1 (centres undefined),3.6
CC(CNS(=O)(=O)c1ccccc1)Sc1ncccn1 (centres undefined),-10.2
CCO/C=C/C(O)(CNC(=O)c1ccc(C(C)(C)C)cc1)C(F)(F)F (centres undefined),-11.8
C=CCSC1=N/C(=C\c2cccnc2)C(=O)N1c1ccc(OC)cc1,-16.6
COc1ccc(OC)c(NC(=O)C2C3C=CC(C3)C2C(=O)NCc2cccnc2)c1 (centres undefined),-11.6
